B2AR ag = beta2AR agonists driving receptor internalization, primary screen, cell-based, FAP fluorogen, flow cytometry | Beta-2 adrenergic receptor (Homo sapiens), P07550 | Am2.2-beta2AR cells; reference of the scale not given here | response, % (no concentration beside the values) | hit rate 0.43% among 340,000;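 active = response above a set limit, near 3 SD of response in nonfluorescent compounds, cut at about 42% in these data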;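 note: stock transfer was 100 nL into about 11 µL; a reference agonist was the positive control; negative values mostly stem from fluorescent compounds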
Target sequence (P07550 whole entry, looked up): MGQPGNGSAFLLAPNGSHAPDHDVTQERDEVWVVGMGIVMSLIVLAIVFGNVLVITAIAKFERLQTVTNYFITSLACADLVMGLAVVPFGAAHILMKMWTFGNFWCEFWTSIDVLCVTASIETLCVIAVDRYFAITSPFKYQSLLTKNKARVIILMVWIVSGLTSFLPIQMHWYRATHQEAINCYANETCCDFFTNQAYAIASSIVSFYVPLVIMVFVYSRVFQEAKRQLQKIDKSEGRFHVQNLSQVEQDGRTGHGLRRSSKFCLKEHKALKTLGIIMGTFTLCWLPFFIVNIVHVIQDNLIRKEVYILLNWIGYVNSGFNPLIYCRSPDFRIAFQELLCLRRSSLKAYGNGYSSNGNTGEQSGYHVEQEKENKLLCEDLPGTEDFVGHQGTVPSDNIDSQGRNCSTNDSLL
RanGTP-Impb inh = inhibitors of RanGTP-importin-beta interaction, primary screen, biochemical, FRET, CFP-Ran, YFP-importin-beta, homogeneous; Ran GTPase (GTP-bound) - importin-beta complex; inhibition, % (no concentration beside the values); hit rate 1.1% among 300,000; cell-free CFP-Ran/YFP-importin-beta FRET ratio;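 active = most replicates above 15%; inconclusive = exactly half above 15%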;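 note: 0% = DMSO wells and 100% = Ran loaded with GDP instead of GTP; wells of about 40 µL received 100 nL stock; the first replicate is given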
LANA-H2B inh = blockers of LANA interaction with H2A/H2B – biochemical, FP readout, HTS, primary screen | inhibition, % (concentration not given with the values) | hit rate 0.6% among 320,000 | Protein LANA1 (Human herpesvirus 8 type P (isolate GK18)), Q9QR71 | cell-free LANA-H2A/H2B peptide, fluorescence polarization; in the data active = inhibition mostly above about 10%, no sharp cut-off; inactive = mostly below about 6.7%;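 note: stock transfer was 7.5 nL into about 10 µL; 0% = median of vehicle wells and 100% = median of positive control wells; one replicate is shown; the record names a cut of 25% in any replicate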
Beta cell apopt = inhibitors of cytokine-induced beta cell apoptosis, primary screen, luminescence; protection from apoptosis, % (no concentration beside the values); INS-1E cytokine-induced death, ATP luminescence, 48 h; percent of positive-control rescue, neutral wells zero; hit rate 0.8% among 300,000; AID 435005, 2010;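 active = all replicates at 75% or more, or half of them and the mean; inconclusive = half reach 75% but not the mean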;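 note: 0% = cytokine-treated negative control wells and 100% = positive control rescue; higher means more ATP so stronger rescue from cytokine killing; wells of about 40 µL received 100 nL stock; the first replicate is given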
T cruzi inh = inhibitors of intracellular T. cruzi growth, primary screen, luminescence, NIH3T3 host cells | inhibition, % (concentration not given with the values) | T. cruzi beta-gal in NIH3T3, 90 h | hit rate 1.4% among 300,000 | AID 1885, 2009;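 active = mean inhibition across valid replicates above about 55%, limit read from the data; inconclusive = mean below that limit but half or more replicates reach it; inactive = mean below it, under half of replicates reach it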;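 note: signal also drops with host cell toxicity which is not excluded here; 0% = plate median of DMSO wells and 100% = zero luminescence signal; higher percent means less beta-gal luminescence so fewer parasites; stock transfer was 50 nL into about 50 µL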
Bfl-1 A1 inh = caspase 3/7 activation in MEF A1-2A-BIM cells, primary screen, A1 inhibitor project, cell-based, luminescence, HTS | Caspase-Glo 3/7 luminescence, 3 h; percent of clofoctol response, vehicle zero | caspase activation, % (test concentration not listed) | hit rate 0.066% among 330,000 | AID 2462, 2010;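 active = over half of replicate activation scores above 10%, or exactly half above 10 with the replicate mean above 10; inconclusive = replicate mean below 10 yet half the replicates above 10; inactive = over half of replicates below 10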;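 note: wells of about 30 µL received 50 nL stock; many hits fall short of the cut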
UCH37 inh = inhibitors of human UCH37 deubiquitinase, primary screen, biochemical, Ub-AMC cleavage, fluorescence | AID 588478, 2011 | hit rate 0.33% among 330,000 | purified proteasome/UCH37 | inhibition, % (no concentration beside the values);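 active = mean of two replicates above 20%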;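 note: 0% = compound-free wells with enzyme and 100% = wells lacking proteasome; stock transfer was 100 nL into about 20 µL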
Target sequence (Q9Y5K5 whole entry, looked up): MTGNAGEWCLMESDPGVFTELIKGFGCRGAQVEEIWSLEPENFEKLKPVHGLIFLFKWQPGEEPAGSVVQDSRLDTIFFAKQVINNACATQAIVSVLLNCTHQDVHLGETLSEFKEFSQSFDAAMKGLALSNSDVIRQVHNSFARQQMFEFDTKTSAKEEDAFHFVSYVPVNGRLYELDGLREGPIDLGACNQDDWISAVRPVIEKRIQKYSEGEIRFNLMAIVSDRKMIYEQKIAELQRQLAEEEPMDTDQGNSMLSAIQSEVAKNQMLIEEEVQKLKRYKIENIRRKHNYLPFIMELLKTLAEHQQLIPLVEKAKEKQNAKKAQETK
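Material: human UCH37 enzyme supplied as purified proteasome complex. Measure: % inhibition of Ub-AMC cleavage fluorescence. Medium: pH 7.4 Tris-HCl (50 mM) with ovalbumin, ATP-MgCl2, DTT. Times: 30 min preincubation with enzyme, 25 min cleavage at room temperature. Detection: AMC fluorescence intensity at 355/460 nm.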
Calb FLC = C. albicans growth inhibition with fluconazole, primary screen, CaCi-2 strain, Alamar Blue fluorescence. C. albicans CaCi-2 (fluconazole-resistant clinical isolate) + fluconazole, 48 h. hit rate 0.57% among 300,000. growth inhibition, % (test concentration not listed). AID 1979, 2009;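 active = most replicates above 75%; inconclusive = exactly half above 75%; inactive = most below 75%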;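 note: all wells also contain fluconazole at 8 µg/ml as a sub-toxic cotreatment; 0% = median of DMSO wells and 100% = median of geldanamycin control wells; wells of about 8 µL received 7.5 nL stock; the first replicate is given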
* marks the source's active call; other numbers are inactive results; ? = inconclusive; nt = no result given.

A first look:
SMILES	B2AR ag	RanGTP-Impb inh	LANA-H2B inh	Beta cell apopt	T cruzi inh	Bfl-1 A1 inh	UCH37 inh	Calb FLC
O=C1CCc2ccccc2N1Cc1ccccc1	-5	1.5	-1.6	-6	-1	0.4	0.1	-6
O=C(COC(=O)CSc1ccccc1)Nc1ccc(F)cc1F	-1	nt	0.3	-4	nt	-0.4	3.2	nt

The whole of this part (from the top)
SMILES	B2AR ag	RanGTP-Impb inh	LANA-H2B inh	Beta cell apopt	T cruzi inh	Bfl-1 A1 inh	UCH37 inh	Calb FLC
O=C1CCc2ccccc2N1Cc1ccccc1	-5	1.5	-1.6	-6	-1	0.4	0.1	-6
O=C(COC(=O)CSc1ccccc1)Nc1ccc(F)cc1F	-1	nt	0.3	-4	nt	-0.4	3.2	nt
Cc1cc(N2CCCc3ccccc32)n2ncnc2n1	3	-0.6	-1.8	-2	-2	-0.2	12	-10
CC(CC(=O)NC1CCCCC1)S(=O)(=O)c1ccc2c(c1)NC(=O)CO2 (configuration not stated)	-5	2.7	1.0	1	-10	-0.8	1.4	3
NC1=NC(=O)/C(=C/c2ccsc2)S1	8	-3.6	-4.8	2	-17	0.6	9.9	-1
COc1cc(C(=O)NNC(=O)NC2CCCCC2)cc(OC)c1OC	-3	-6.4	14*	-5	-16	0.1	2.1	-2
Cc1sc2nc(CN3CCCCC3)nc(Cl)c2c1C	0	-1.5	1.1	-19	-9	0.1	1.8	21
CN(Cc1ccccc1)C(=O)CCC1CCN(S(C)(=O)=O)CC1	4	?	-1.9	1	-9	-0.8	4.3	10
COc1ccccc1C(=O)NC(CCSC)C(=O)N1CCN(C/C=C/c2ccccc2)CC1 (configuration not stated)	1	0.3	1.8	7	22	1.2	5.1	-1
Cn1c(/C(C#N)=C/C2CC=CCC2)nc2ccccc21 (configuration not stated)	-4	9.8	-1.5	1	8	-0.3	-1.8	23
Cc1cc(C(=O)Nc2ccc3ccccc3c2)oc1C	12	3.1	-1.1	12	3	-3.7	-2.5	-10
O=C(NCc1ccco1)c1ccc2nccnc2c1	-13	3.0	1.5	-3	-4	-0.7	0.9	-6

An excerpt from above in order of their number in LANA-H2B inh, highest first:
canonical_smiles	LANA-H2B inh
CC(CC(=O)NC1CCCCC1)S(=O)(=O)c1ccc2c(c1)NC(=O)CO2 (configuration not stated)	1.0
O=C(COC(=O)CSc1ccccc1)Nc1ccc(F)cc1F	0.3
Cc1cc(C(=O)Nc2ccc3ccccc3c2)oc1C	-1.1
NC1=NC(=O)/C(=C/c2ccsc2)S1	-4.8

Additional results.
SMILES	B2AR ag	RanGTP-Impb inh	LANA-H2B inh	Beta cell apopt	T cruzi inh	Bfl-1 A1 inh	UCH37 inh	Calb FLC
Cc1cccc(C(=O)OCC(=O)N2CC(C)OC(C)C2)c1C (configuration not stated)	11	2.4	-3.9	3	-3	0.1	-1.1	7
Cc1ccc(CCNC(=O)CCn2ccc3cc(S(=O)(=O)N4CCCC4)ccc32)cc1	9	3.4	-0.6	2	12	-0.2	0.7	-7
Cn1cnnc1Sc1ccc(S(C)(=O)=O)cc1[N+](=O)[O-]	-1	0.9	2.7	-16	4	1.3	6.9	16
Cc1cc(C)c(NC(=O)CO/N=C2\CCCc3nonc32)c(C)c1	-2	0.0	-2.2	-2	-3	-0.1	nt	0
Cc1ccc(NC(=O)CN2C(=O)N/C(=C/c3ccco3)C2=O)cc1	1	?	0.4	-2	-14	-0.5	2.1	-10
CCOC(=O)C(O)(CC(=O)c1ccc(Cl)cc1)C(=O)OCC	5	-3.0	3.3	-12	-7	0.3	0.3	-2
CC1CCN(c2nc3c(c(=O)n(C)c(=O)n3C)n2CCSc2nc3ccccc3s2)CC1	-10	2.3	1.1	-5	12	2.4	-4.2	8
Cc1cc(C(=O)NC(=S)Nc2cccc(C(=O)O)c2C)ccc1[N+](=O)[O-]	-4	4.2	-6.6	-7	0	-0.2	nt	-4
COc1ccc(N2CCN(C(=O)c3sc4nc(-c5ccc(F)cc5)cn4c3C)CC2)cc1	5	-3.8	1.8	-3	8	-0.4	2.2	1
O=C(/C=C/c1ccc(Br)cc1)Nc1ccc(S(=O)(=O)Nc2ncccn2)cc1	20	3.4	2.7	-7	-1	0.1	-18	-38
CCc1ccc(Nc2ncc3c(n2)CC(c2ccco2)CC3=O)cc1 (configuration not stated)	-9	7.1	2.4	5	34	-0.1	-16	-9
COc1ccccc1C(=O)Nc1ccc(C(=O)Nc2ccccc2C(=O)O)cc1	7	-0.8	2.8	-1	-3	-1.6	6.4	26
O=C(Nc1ccc(Br)cn1)c1ccc(COc2c(F)c(F)cc(F)c2F)o1	-3	nt	5.3	-1	nt	0.3	1.2	nt
CC1CCc2c(sc(N)c2C(=O)OC(C)C)C1 (configuration not stated)	7	0.5	2.0	-5	8	1.2	11	20
Cc1ccc(-c2cc(C(=O)N3CCc4ccccc4C3)[nH]n2)cc1C	14	-2.8	-2.2	-5	-16	-0.7	0.1	26
CCC(=O)Nc1cccc(-c2ccc(N3CCN(C)CC3)nn2)c1	-8	-3.8	2.1	-7	9	-1.0	1.8	-2
COc1ccccc1OCC(=O)NCCS(=O)(=O)N1CCN(c2ccc(F)cc2)CC1	2	-0.6	-5.7	-1	0	-1.2	2.6	1
O=[N+]([O-])c1ccc(C(O)C(CO)NC(=S)Nc2ccccc2)cc1 (configuration not stated)	25	1.0	0.0	-6	-16	-0.3	4.0	20
Cc1cc(-c2ccccc2)c(C#N)c(SCC(N)=O)n1	20	4.8	-0.5	-7	-3	0.5	2.0	6
CC(=O)Nc1ccc(NC(=O)CSc2ncnn2-c2ccccc2)cc1	6	2.2	1.5	2	-2	-3.6	0.5	1
CCOC(=O)N1CCN(C(=O)C2CC(=O)N(Cc3ccc(OC)cc3)C2)CC1 (configuration not stated)	-2	-0.2	-1.5	1	-6	-0.4	-3.5	-3
Cc1nc2c(C(=O)O)cnn2c(C)c1Cc1ccccc1F	7	4.5	0.0	1	-2	1.7	-10	14
O=S(=O)(Nc1ccc2c(c1)OCCO2)c1cccc2cccnc12	12	-3.7	-2.5	-4	5	0.7	0.1	23
COc1ccc(NC(=O)CSCc2cc(=O)n3cc(C)sc3n2)cc1	-9	5.0	4.2	-3	6	-0.3	1.1	2
Cc1nnc(SCC(=O)N2c3ccccc3C(C)(c3ccc(Cl)cc3)CC2(C)C)s1 (configuration not stated)	6	4.5	-0.1	16	37	-0.4	0.6	20
Brc1ccc(/C=N/Nc2ccccc2)cc1	2	-1.7	3.8	4	27	-0.5	nt	-11
COc1ccc(Nc2nc(N)c([N+](=O)[O-])c(NCCO)n2)cc1	4	-0.6	-1.1	1	-11	-0.2	nt	-7
Cc1ccc(S(=O)(=O)Nc2ccccc2F)cc1C(=O)NNC(=O)c1csc(N2CCOCC2)n1	-3	0.8	1.0	-6	-15	?	1.5	4
Cc1nnc(NC(=O)CSc2nccn2-c2ccc(F)cc2)s1	-4	0.0	1.4	2	-5	-0.2	2.0	-7
CCOC(=O)c1sc2cccc(Cl)c2c1N	1	-3.5	-9.5	0	-11	0.1	-13	5
N#Cc1ccc(-c2ccc(OCC(=O)NN=Cc3ccncc3)cc2)cc1	1	nt	2.2	6	nt	0.6	2.9	nt
O=C(Cc1ccccc1)Nc1ccc(NC(=O)c2cccs2)c(Cl)c1	-20	-1.3	-0.9	7	-8	-1.3	-1.6	-5
O=C(CCCOc1ccc(Cl)cc1)NCCc1ccccc1	-6	2.3	-3.0	-4	-11	0.8	4.2	-3
Cc1nc2ccccc2c2oc(C(=O)N3CCCC(C)C3)cc12 (configuration not stated)	-8	2.1	2.2	5	9	?	1.0	2
O=C(c1cc(S(=O)(=O)N2CCCCC2)ccc1Cl)N1CCOCC1	-5	4.7	-2.9	nt	-6	1.0	0.5	4
Cc1cc(-c2nnc(-c3cccc(C(F)(F)F)c3)o2)no1	-13	-1.8	1.4	nt	nt	-0.5	1.7	8

As a working copy, part of the list above:
SMILES	B2AR ag	RanGTP-Impb inh	LANA-H2B inh	Beta cell apopt	T cruzi inh	Bfl-1 A1 inh	UCH37 inh	Calb FLC
Cc1nnc(SCC(=O)N2c3ccccc3C(C)(c3ccc(Cl)cc3)CC2(C)C)s1 (configuration not stated)	6	4.5	-0.1	16	37	-0.4	0.6	20
Brc1ccc(/C=N/Nc2ccccc2)cc1	2	-1.7	3.8	4	27	-0.5	nt	-11

2 compounds drawn at random from those above:
SMILES	B2AR ag	RanGTP-Impb inh	LANA-H2B inh	Beta cell apopt	T cruzi inh	Bfl-1 A1 inh	UCH37 inh	Calb FLC
CCOC(=O)c1sc2cccc(Cl)c2c1N	1	-3.5	-9.5	0	-11	0.1	-13	5
O=C(c1cc(S(=O)(=O)N2CCCCC2)ccc1Cl)N1CCOCC1	-5	4.7	-2.9	nt	-6	1.0	0.5	4

The list continues:
SMILES	B2AR ag	RanGTP-Impb inh	LANA-H2B inh	Beta cell apopt	T cruzi inh	Bfl-1 A1 inh	UCH37 inh	Calb FLC
COc1cc(Cl)c(S(=O)(=O)NCCCn2ccnc2)cc1Cl	1	3.1	3.1	-10	-10	-0.9	1.3	-3
C/C(=N\NC(=O)c1cccnc1)c1cccc([N+](=O)[O-])c1	4	-1.9	3.1	0	-6	2.1	nt	19
CCc1ccc(C(=O)Nc2cc(C)on2)o1	-5	0.8	-0.5	3	13	0.2	5.1	-1
CCOc1ccc(N2CC(O)Cn3c2nc2c3c(=O)n(CCCc3ccccc3)c(=O)n2C)cc1 (configuration not stated)	-3	0.0	-3.7	6	8	0.4	-1.2	-2
O=C(Nc1cccc(Cl)c1)c1cc([N+](=O)[O-])ccc1N1CCN(CCO)CC1	-8	3.4	0.0	2	-11	-0.3	3.2	-8
COc1ccc(NC(=O)Oc2ccccc2)cc1Cl	-3	-8.4	2.0	0	-9	0.1	0.7	-1
CN1CCN(C2=Nc3ccccc3Oc3ccc(Cl)cc32)CC1	9	0.7	14*	-19	13	0.0	3.3	nt
C=CCNC(=O)CSc1nnc(-c2ccccc2Br)n1-c1cccc(C(F)(F)F)c1	-11	-1.7	4.9	nt	7	1.2	1.8	-1
CCN1CCN(c2nc(N)c([N+](=O)[O-])c(Nc3ccc(C)cc3)n2)CC1	-8	2.2	19*	6	42	0.0	4.7	7
CCCCn1c(CNC(=O)CC)nc2ccccc21	5	-1.5	1.8	-3	-5	0.3	1.5	-1

Screens: PubChem BioAssay, several laboratories
